# Ecoli rRNA inh: selective bacterial rRNA inhibition in E. coli; E. coli WT GFP vs humanized-ribosome RFP mutants, fluorescence, 24 h; stronger effect = lower value; DMSO median 0, no signal -100; GFP signal change (wild-type ribosome), % (test concentration not listed); hit rate 1.6% among 350,000;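 active = significant combined selectivity score with lowered wild-type GFP, culture density cut under 30%, mutant RFP and density less affected; inactive = any of these conditions unmet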; note: one replicate is shown; some compounds called inactive have numbers as strong as hits
# FGF22 binding: binders of recombinant human FGF22 by thermal shift; hit rate 1.5% among 340,000; AID 651658; SYPRO orange fluorescence; percent of sucrose octasulfate shift, DMSO zero; Q9HCT0; calls only at 9.99 µM;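 active = melting point raised past a set limit in the mean and every replicate; three in four hits are not shown here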
# Target sequence (Q9HCT0 whole entry, looked up): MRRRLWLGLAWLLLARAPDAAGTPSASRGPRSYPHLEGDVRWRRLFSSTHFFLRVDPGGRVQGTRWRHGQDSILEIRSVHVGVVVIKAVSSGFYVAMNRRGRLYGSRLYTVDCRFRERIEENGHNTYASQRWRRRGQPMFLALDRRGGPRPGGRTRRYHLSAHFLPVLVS
# Ecoli rRNA inh OD600: recorded beside Ecoli rRNA inh, whose call it bears; OD600 change, %; measured here: OD600 growth;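 optical density of the mix in the first replicate; 0 = DMSO median and -100 = no signal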
# Ecoli rRNA inh RFP: also measured in Ecoli rRNA inh; calls as there; RFP signal change, %; measured here: RFP humanized mutant strains;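 first replicate; 0 = DMSO median and -100 = no signal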
# * marks the source's active call; other numbers are inactive results; i = inactive; · = no result given. Not all compounds are listed; rates above refer to the full screens.
SMILES,Ecoli rRNA inh,Ecoli rRNA inh OD600,Ecoli rRNA inh RFP,FGF22 binding
COCC(=O)N(C)C[C@@H]1Oc2cc(C#C[C@H](C)O)ccc2S(=O)(=O)N([C@H](C)CO)C[C@H]1C,1,0,-1.7,i
COCC(=O)Nc1ccc2c(c1)[C@H]1C[C@H](CC(=O)NCc3ccncc3)O[C@H](CO)[C@H]1O2,0,0,-0.7,i
CNC(=O)C[C@@H]1CC[C@@H]2[C@H](COC[C@@H](O)CN2C(=O)Nc2ccc3c(c2)OCO3)O1,-1,-4,-4.5,i
CCc1sc(N2[C@H](C#N)[C@H](c3ccccc3-c3ccc(F)cc3)[C@H]2CO)nc1C,5,-12,24,i
COc1ccc2c3c([nH]c2c1)[C@H](CO)N(C(=O)Cc1ccccc1)CC31CCN(C(=O)Nc2ccccc2F)CC1,1,7,3.7,i
COCCNC(=O)C[C@H]1C[C@H]2c3cc(NS(=O)(=O)c4ccccc4)ccc3O[C@H]2[C@@H](CO)O1,3,3,1.3,i
C[C@H](CO)N1C[C@H](C)[C@@H](CN(C)Cc2ccc3c(c2)OCO3)OCCCC[C@H](C)Oc2ccc(NC(=O)Nc3cccc4ccccc34)cc2C1=O,1,0,2.5,i
CN(C)C(=O)C[C@@H]1CC[C@H](NC(=O)NC2CCCC2)[C@@H](CO)O1,2,10,0.9,i
C[C@H](CO)N1C[C@H](C)[C@H](CN(C)C)OCCCC[C@H](C)Oc2ccc(NC(=O)Nc3ccc(C(F)(F)F)cc3)cc2C1=O,-2,-5,5.9,i
C[C@H](CO)N1C[C@H](C)[C@@H](CN(C)Cc2ccccc2)OCCCC[C@H](C)Oc2ccc(NC(=O)CCCN(C)C)cc2C1=O,4,7,-4.5,i
COCC#Cc1cnc2c(c1)C(=O)N([C@@H](C)CO)C[C@H](C)[C@H](CN(C)C(=O)CCN1CCCCC1)O2,3,-1,-3.1,i
C[C@H]1CN([C@@H](C)CO)C(=O)c2cc(C#CC3(O)CCCC3)cnc2O[C@@H]1CN(C)Cc1ccccc1,1,7,-2.0,i
CCCN1[C@H](C(=O)NCc2cccc(OC)c2)[C@@H](CO)[C@@H]2Cn3c(ccc(C4=CCCC4)c3=O)[C@@H]21,1,-1,3.9,i
COCc1cn(CC[C@H]2CC[C@@H](NC(=O)CCN3CCCCC3)[C@H](CO)O2)nn1,2,0,-1.1,i
CC(=O)N1CCN(c2ccc(N3CCN(C(C)=O)[C@H](C)C3)c(C)c2)[C@@H](C)C1,7,6,3.0,i
CNC[C@@H]1Oc2c(NC(=O)c3cnccn3)cccc2C(=O)N([C@H](C)CO)C[C@@H]1C,1,2,1.6,i
CCCC(=O)Nc1ccc2c(c1)OC[C@@H](C)N(C(=O)c1ccncc1)C[C@H](C)[C@H](OC)CN(C)C2=O,-1,2,-0.8,i
COC(=O)C1=C(C)N(Cc2ccccc2C(F)(F)F)C(=NCc2ccccc2C(F)(F)F)NC1c1cccc(F)c1 (stereo not drawn),7,4,11,i
C/C=C/c1ccc([C@@H]2[C@@H](CO)N3CCCCN(C(=O)Nc4cc(F)ccc4F)C[C@H]23)cc1,0,-23,9.6,i
O=S(=O)(c1ccccc1)N1CCCCN2[C@H](CO)[C@H](c3ccc(-c4ccccc4F)cc3)[C@H]2C1,-58,-77,-5.5,i
CS(=O)(=O)Nc1ccc2c(c1)[C@@H]1C[C@H](CC(=O)N3CCc4ccccc4C3)O[C@H](CO)[C@@H]1O2,3,9,-2.2,i
CNC[C@@H]1Oc2cc(C#CCOC)ccc2S(=O)(=O)N([C@@H](C)CO)C[C@H]1C,2,9,-0.3,i
C[C@H](O)C#Cc1cnc2c(c1)C(=O)N([C@@H](C)CO)C[C@H](C)[C@H](CN(C)C(=O)Nc1ccc(C(F)(F)F)cc1)O2,6,3,-3.1,i
Cc1cccc(S(=O)(=O)N2CC[C@@H]3[C@H]2c2cc(C#Cc4cccc(F)c4)ccc2N[C@@H]3CO)c1,7,14,-2.0,i
CO[C@H]1CN(C)C(=O)c2ccc(NC(=O)c3ccccc3)cc2OC[C@H](C)N(C(C)=O)C[C@H]1C,1,3,-0.9,i

# (further entries)
SMILES,Ecoli rRNA inh,Ecoli rRNA inh OD600,Ecoli rRNA inh RFP,FGF22 binding
Cc1noc(C)c1NC(=O)Nc1ccc2c(c1)CC(=O)N([C@@H](C)CO)C[C@@H](C)[C@H](CN(C)Cc1ccc(C(=O)O)cc1)O2,3,10,-3.7,i
CCCNC(=O)N1C[C@H](O)COC[C@H]2O[C@H](CC(=O)O)CC[C@@H]21,-1,-6,-2.2,i
O=S(=O)(Cc1ccccc1)NCC[C@@H]1CC[C@@H](NS(=O)(=O)c2ccc(F)cc2)[C@@H](CO)O1,-1,-4,-0.3,i
COc1cccc(-c2cnc3c(c2)C(=O)N([C@H](C)CO)C[C@H](C)[C@H](CN(C)C)O3)c1,2,-3,-3.2,i
C[C@@H]1CN([C@@H](C)CO)C(=O)c2cc(NC(=O)C3CCCCC3)ccc2O[C@@H](C)CCCCO[C@H]1CN(C)Cc1ccccc1,0,-1,1.5,i
CCCNC(=O)N1C[C@@H](O)COC[C@@H]2O[C@@H](CC(=O)O)CC[C@H]21,6,17,-1.6,i
C[C@@H]1CN([C@H](C)CO)C(=O)c2cc(NC(=O)c3ccncc3)ccc2O[C@@H]1CN(C)S(C)(=O)=O,-3,-4,-4.2,i
C[C@@H]1CN([C@@H](C)CO)C(=O)c2ccccc2-c2ccccc2CO[C@@H]1CN(C)Cc1ccc2c(c1)OCO2,-5,-22,-2.0,i
C[C@@H]1CN([C@@H](C)CO)C(=O)c2cc(-c3cccc(F)c3)cnc2O[C@@H]1CN(C)C(=O)Nc1ccccc1F,-1,2,0.0,i
COc1ccccc1NC(=O)N[C@H]1CC[C@@H](CC(=O)NCc2ccc(Cl)c(Cl)c2)O[C@H]1CO,-10,-23,1.9,i
CNC[C@@H]1Oc2c(NS(C)(=O)=O)cccc2C(=O)N([C@@H](C)CO)C[C@@H]1C,-3,-3,1.4,i
C[C@@H]1CN([C@H](C)CO)C(=O)c2cc(NS(=O)(=O)c3ccc(F)cc3)ccc2O[C@@H](C)CCCCO[C@@H]1CN(C)S(=O)(=O)c1ccc(Cl)cc1,-6,3,-5.0,i
C[C@@H]1CN([C@H](C)CO)C(=O)c2cc(NC(=O)Nc3ccc4c(c3)OCO4)ccc2O[C@@H]1CN(C)S(C)(=O)=O,3,-5,-1.2,i
Cc1noc(C)c1NC(=O)Nc1ccc2c(c1)C(=O)N([C@H](C)CO)C[C@H](C)[C@H](CN(C)S(=O)(=O)c1ccc(Cl)cc1)OCCCC[C@H](C)O2,-2,-5,-3.6,i
O=S(=O)(c1ccccc1F)N1CC[C@H]2[C@H](CO)Nc3ccc(-c4ccc(F)cc4)cc3[C@H]21,-23,-61,8.4,i
Cc1noc(C)c1NC(=O)N(C)C[C@H]1Oc2ccc(NC(=O)C3CC3)cc2CC(=O)N([C@@H](C)CO)C[C@@H]1C,1,-7,-0.8,i
CC(=O)N(C)C[C@H]1Oc2cc(C#Cc3cccnc3)ccc2S(=O)(=O)N([C@@H](C)CO)C[C@H]1C,1,0,1.9,i
O=C(C[C@@H]1CC[C@@H](NC(=O)c2cccnc2)[C@H](CO)O1)NCc1ccc(Cl)c(Cl)c1,-2,2,0.4,i
C/C=C/c1ccc([C@H]2[C@@H](CO)N(CCC(F)(F)F)C23CN(C(=O)COC)C3)cc1,-1,-16,1.6,i
C[C@H](CO)N1C[C@H](C)[C@H](CN(C)C(=O)Nc2ccc(C(F)(F)F)cc2)Oc2ccc(N(C)C)cc2C1=O,-16,-13,-1.0,i
CCC(=O)N(C)C[C@@H]1Oc2cc(C#CCC(C)C)ccc2S(=O)(=O)N([C@@H](C)CO)C[C@@H]1C,-6,-24,2.7,i
COc1ccc(-c2ccc3c(n2)CCCN3S(=O)(=O)c2ccc(F)cc2)cc1,8,8,4.5,i
C[C@@H]1CN([C@H](C)CO)C(=O)c2cc(C#Cc3cccc(F)c3)cnc2O[C@@H]1CN(C)C(=O)C1CC1,-1,-12,-0.9,i
CN1C(=O)[C@@]2(O[C@H]3C=CC=CN3C3=C2C(=O)CCC3)c2cc([N+](=O)[O-])ccc21,11,10,2.5,·
C[C@@H]1CCCCO[C@@H](CN(C)S(=O)(=O)c2cccs2)[C@@H](C)CN([C@@H](C)CO)C(=O)c2cc(NC(=O)Nc3ccccc3)ccc2O1,3,6,-2.1,i

# Later entries.
SMILES,Ecoli rRNA inh,Ecoli rRNA inh OD600,Ecoli rRNA inh RFP,FGF22 binding
CCCC(O)C#Cc1cnc2c(c1)C(=O)N([C@H](C)CO)C[C@H](C)[C@H](CN(C)S(=O)(=O)c1ccccc1)O2 (stereo partly drawn),2,-1,-0.2,i
COc1ccc(S(=O)(=O)N(C)C[C@H]2Oc3ccc(NS(=O)(=O)c4c(C)noc4C)cc3CC(=O)N([C@@H](C)CO)C[C@@H]2C)cc1,-2,3,0.9,i
Cc1noc(C)c1NC(=O)Nc1ccc2c(c1)C(=O)N([C@@H](C)CO)C[C@H](C)[C@@H](CN(C)Cc1ccc(C(=O)Nc3ccccc3N)cc1)O2,2,10,-1.9,i
O=C(N[C@H]1CC[C@H](CCNS(=O)(=O)c2ccc(F)cc2)O[C@@H]1CO)c1cccc(F)c1,-3,-5,-1.1,i
Cc1noc(C)c1NC(=O)N(C)C[C@H]1Oc2c(NS(=O)(=O)c3ccc(F)cc3)cccc2C(=O)N([C@@H](C)CO)C[C@H]1C,0,4,-5.2,i
CN1CCN(C(=O)C[C@@H]2CC[C@H]3[C@@H](COc4ccc(NC(=O)c5ccc(F)c(F)c5)cc4C(=O)N3C)O2)CC1,3,-1,-2.1,i
CC(C)NC(=O)Nc1ccc2c(c1)CC(=O)N([C@@H](C)CO)C[C@@H](C)[C@@H](CN(C)C(=O)Nc1ccc(C(F)(F)F)cc1)O2,1,2,0.9,i
C[C@H](O)[C@@H]1CN2CCc3ccc(-c4ccc5c(c4)OCO5)cc3[C@@H]2C[C@@H]1N(C)Cc1ccccc1,-39,-73,-0.3,i
C[C@@H]1CN([C@H](C)CO)C(=O)c2cc(-c3ccc(F)cc3)cnc2O[C@H]1CN(C)C(=O)c1cccnc1,1,-9,1.1,i
C[C@H]1CN([C@@H](C)CO)S(=O)(=O)c2ccc(C3=CCCC3)cc2O[C@H]1CN(C)C(=O)c1ccncc1,6,8,-2.7,i
Cc1ccc(S(=O)(=O)Nc2ccc3c(c2)CC(=O)N([C@H](C)CO)C[C@@H](C)[C@H](CN(C)Cc2ccccc2)O3)cc1,-5,-45,26,i
CN(C)CC(=O)Nc1ccc2c(c1)[C@H]1C[C@@H](CC(=O)NCc3cccnc3)O[C@H](CO)[C@H]1O2,3,1,-1.7,i
CCC(=O)N(C)C[C@@H]1Oc2cc(C#Cc3ccncc3)ccc2S(=O)(=O)N([C@H](C)CO)C[C@@H]1C,-5,0,-0.8,i
CCCNC(=O)[C@@H]1[C@@H](CO)[C@@H]2Cn3c(ccc(-c4ccc(F)cc4)c3=O)[C@H]1N2CCC,1,-6,-0.2,i
CO[C@@H]1CN(C)C(=O)c2cc(NS(=O)(=O)CC(F)(F)F)ccc2OC[C@H](C)N(C(=O)NC(C)C)C[C@@H]1C,1,3,-0.3,i
C[C@H]1CN([C@@H](C)CO)C(=O)c2cc(Br)cnc2O[C@@H]1CN(C)C(=O)c1ccc(F)cc1,8,3,-0.7,i
CO[C@@H]1CN(C)C(=O)c2cc(NC(=O)c3cnccn3)ccc2OC[C@H](C)N(CC2CC2)C[C@H]1C,0,0,-2.0,i

# Of the compounds above, seven contain a CF3 group:
SMILES,Ecoli rRNA inh,Ecoli rRNA inh OD600,Ecoli rRNA inh RFP,FGF22 binding
C[C@H](CO)N1C[C@H](C)[C@H](CN(C)C)OCCCC[C@H](C)Oc2ccc(NC(=O)Nc3ccc(C(F)(F)F)cc3)cc2C1=O,-2,-5,5.9,i
COC(=O)C1=C(C)N(Cc2ccccc2C(F)(F)F)C(=NCc2ccccc2C(F)(F)F)NC1c1cccc(F)c1 (stereo not drawn),7,4,11,i
C[C@H](O)C#Cc1cnc2c(c1)C(=O)N([C@@H](C)CO)C[C@H](C)[C@H](CN(C)C(=O)Nc1ccc(C(F)(F)F)cc1)O2,6,3,-3.1,i
C/C=C/c1ccc([C@H]2[C@@H](CO)N(CCC(F)(F)F)C23CN(C(=O)COC)C3)cc1,-1,-16,1.6,i
C[C@H](CO)N1C[C@H](C)[C@H](CN(C)C(=O)Nc2ccc(C(F)(F)F)cc2)Oc2ccc(N(C)C)cc2C1=O,-16,-13,-1.0,i
CC(C)NC(=O)Nc1ccc2c(c1)CC(=O)N([C@@H](C)CO)C[C@@H](C)[C@@H](CN(C)C(=O)Nc1ccc(C(F)(F)F)cc1)O2,1,2,0.9,i
CO[C@@H]1CN(C)C(=O)c2cc(NS(=O)(=O)CC(F)(F)F)ccc2OC[C@H](C)N(C(=O)NC(C)C)C[C@@H]1C,1,3,-0.3,i

# Assay outcomes (PubChem)
